Screening results (PubChem)
ClpP mod: qHTS Assay for Activators of ClpP; 340,000 tested, 1.9% active; ATP-dependent Clp protease proteolytic subunit (Bacillus subtilis (strain 168)), P80244; purified B. subtilis ClpP, FRET peptide cleavage, 20 min; Potency, µM (doses to about 57.5 µM), inactives show at the highest dose activity change, negative = active; active = well fitted falling curve with a large enough effect; inconclusive = small, poorly fitted or top-dose-only effect; inactive = no such curve, though single readings can be large or run the other way; also: the source files actives as falling curves though it sought activators and does not explain the sign; nearly all actives have a fitted effect of over 65% in size; many hits overshoot -100%
Target sequence (P80244 whole entry, looked up): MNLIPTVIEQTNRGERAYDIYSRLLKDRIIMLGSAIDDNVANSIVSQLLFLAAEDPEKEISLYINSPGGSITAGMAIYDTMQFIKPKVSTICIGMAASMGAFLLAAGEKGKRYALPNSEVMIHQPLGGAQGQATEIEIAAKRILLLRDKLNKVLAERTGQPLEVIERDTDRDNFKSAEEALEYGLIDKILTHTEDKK
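FRET quenching reversal measured ClpP activation: 10 microg/mL B. subtilis ClpP at pH 8 with the FRET-FV decapeptide, read at 430 nm after 320 nm excitation. The 20-min minus 0-min signal was scaled between DMSO/no-enzyme wells and ADEP (5.8 microM final).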
The depositor's hits bear a star; ? = inconclusive. Potency is read from the fitted curve at half-maximal effect. A portion of the library; the hit share may differ from the screen's.

SMILES	ClpP mod
Cc1cc(O)c(C(c2ccc(F)cc2)N2CCN(c3ccccc3)CC2)c(=O)n1Cc1ccco1 (centres undefined)	0.7%
COc1ccc(-c2nc3ccccc3o2)cc1NC(=O)c1ccc(-c2cccc(Cl)c2C)o1	-17.4%
CCCCOc1ccc(C(=O)NCCc2sc3nc(-c4ccc(OC)cc4)nn3c2C)cc1	-4.5%
CCCCNC(=O)C[C@@H]1C[C@@]2(C(=O)OC)CCCCC=C2N(Cc2ccco2)C1=O	3.7%
CCCCc1nn2c(=O)cc(COC(=O)c3ccc(NC(=O)c4cccc(OC)c4)cc3)nc2s1	-0.2%
N#Cc1c(C(F)(F)F)cc(-c2cccs2)nc1SCc1ccc(F)cc1	-29.5%
CCCCOc1ccc(NC(=O)CSc2ccc(C(=O)O)cn2)cc1	-0.2%
CCOCCCNC(=O)c1cc2c(=O)n(C)c3ccccc3c2n1C	3.5%
O=C(CSc1nc2ccccc2nc1Cc1ccccc1)Nc1ccccc1C(F)(F)F	-3.7%
COc1ccccc1NC(=O)c1nnn(-c2ccc(F)cc2)c1C	-0.4%
Cc1ccc(CNC(=O)c2c(O)nc3c(C)cccn3c2=O)cc1	?
COCCOC(=O)c1c(C)oc2c1cc(NS(=O)(=O)c1ccc(Cl)c(C)c1)c1ccccc12	0.3%
CCOc1ccc(S(=O)(=O)NCCc2csc(-c3ccc(Cl)cc3)n2)cc1	-8.8%
COc1ccccc1NC(=O)CSc1oc(-c2ccc(F)cc2)nc1S(=O)(=O)c1ccc(Br)cc1	1.9%
O=C(CSCn1nnc2c(=O)[nH]c(Cc3ccc(F)cc3)nc21)Nc1cccc(C(F)(F)F)c1	-0.3%
Cc1cc(C)n(CCc2nc3c4ccccc4nc(SCc4ccc(F)cc4)n3n2)n1	-3.1%
Cc1ccc(C(=O)NCCN2CCC(n3c(=O)[nH]c4ccccc43)CC2)cc1F	-0.6%
COc1ccc(CCNC(=O)C2CCN(c3ncnc4c3nc3n4CCCCC3)CC2)c(OC)c1	1.2%
CCc1ccc(CNC(=O)c2cc3ccccn3n2)cc1	3.8%
COc1ccccc1Nc1nn2c(=O)c3ccc(C(=O)NCCc4ccccc4)cc3nc2s1	-25.6%
CCn1c(SC)nc2c([nH]c3ccccc32)c1=O	-14.3%
Cn1c2c(c(=O)n(C)c1=O)C(c1ccccc1C(F)(F)F)CC(=O)N2 (centres undefined)	-5.2%
CCOC(=O)[C@]12CCC=C1N(Cc1cccc3ccccc13)C(=O)[C@H](CC(=O)NCCc1ccccc1OC)C2	-10.2%
CCn1c(C(=O)N2CCCC(C(=O)N3CCN(c4cc(C)ccc4C)CC3)C2)cc2sccc21 (centres undefined)	-3.3%
COc1ccc(NC(=O)CSc2ccc3nc(-c4ccccc4)cn3n2)cc1OC	?

Reprinted from the part before: 2 entries, then new ones.
SMILES	ClpP mod
CCn1c(C(=O)N2CCCC(C(=O)N3CCN(c4cc(C)ccc4C)CC3)C2)cc2sccc21 (centres undefined)	-3.3%
COc1ccc(NC(=O)CSc2ccc3nc(-c4ccccc4)cn3n2)cc1OC	?
N#Cc1ccccc1Cn1c(SCC(=O)NCc2ccccc2)nc2ccccc21	0.8%
COc1ccc2c(c1)c1c(c(=O)n(Cc3ccccc3)c(=O)n1Cc1ccccc1Cl)n2C	-20.6%
COc1ccc(-c2cc3nc(C4CCN(C(=O)OC(C)(C)C)CC4)c(C(=O)Nc4cc(C)cc(C)c4)cn3n2)cc1	-4.9%
CC1=C(c2ccc(C)c(C)c2)S(=O)(=O)N=C1N1CCC(C(=O)NC(C)c2ccccc2)CC1 (centres undefined)	2.3%
CN1C(=O)c2ccccc2Sc2ccc(NC(=O)Nc3ccccc3F)cc21	0.4%
COc1ccc(OC)c(CCNc2ncnc3onc(-c4ccc(Cl)cc4)c23)c1	-6.5%
FC(F)(F)c1cc(Cl)c2nc(-c3ccc(Cl)cc3)c(Cc3ccsc3)n2c1	-15.7%
CCC(C)NC(=O)CSc1nc2cc3c(cc2c(=O)n1CCCC(=O)NCc1ccc2c(c1)OCO2)OCO3 (centres undefined)	-1.8%
CCC(C)NC(=O)c1sc2nc(C)c(C(=O)Nc3ccc(C)cc3C)c(-c3ccc(NC(C)=O)cc3)c2c1N (centres undefined)	-10.5%
CCn1c(SCC(=O)Nc2cc(C)ccc2F)nnc1-c1ccccc1O	0.0%
COc1ccc(N2CCN(CCCNC(=O)c3ccc4nc(Cc5ccccc5)oc4c3)CC2)cc1	-2.8%
CCOc1ccc(NC(=O)CNS(=O)(=O)c2ccc(Br)s2)cc1	0.6%
COc1ccc(CCNC(=O)CCCn2nc(C)c3sc4ccccc4c3c2=O)cc1OC	-6.5%
CC1=C(C(=O)Nc2ccc(Cl)cc2)C(c2ccc(C(F)(F)F)cc2)n2nnnc2N1 (centres undefined)	-2.5%
CCCc1cn(CC(C)n2c(=O)c3ccccc3n2Cc2cc(C(C)C)no2)nn1 (centres undefined)	4.4%
CCOC(=O)CSc1nc(-c2ccc(F)cc2)cc(C(F)(F)F)c1C#N	?
COC(=O)[C@@]12C[C@@H](CC(=O)NCCC(C)C)C(=O)N(Cc3ccccc3)C1=CCC(C)(C)C2	2.1%
CC(=O)N1c2ccccc2C(=O)C1N1CCN(c2cc(Cl)ccc2C)CC1 (centres undefined)	?
Cc1cc(Cl)ccc1OCC(=O)N(Cc1ccc(N(C)C)cc1)CC1CCCO1 (centres undefined)	-1.6%
CCC1CCCCN1S(=O)(=O)c1ccc(C(=O)Nc2sc3c(c2C(N)=O)CCC3)cc1 (centres undefined)	-1.5%
CCOc1cccc(C2c3[nH]c4ccccc4c3CCN2C(=O)CSCc2ccc(F)cc2)c1 (centres undefined)	-1.8%
CCCc1cc(=O)[nH]c(Nc2ccc(OCC)cc2)n1	-3.6%
COCCCNC(=O)N1CCN(c2nnc(C)c3c(C)n(-c4ccc(Cl)cc4)nc23)CC1	-7.1%
CCOC(=O)N1CCN(c2ncc3c(n2)CC(c2ccc(OC)c(OC)c2)CC3=O)CC1 (centres undefined)	0.5%
CCOC(=O)[C@]12CCC=C1N(Cc1cccc3ccccc13)C(=O)[C@H](CC(=O)N1CCC(c3ccccc3)CC1)C2	-3.0%
(list continues)
SMILES	ClpP mod
CC(=O)Nc1cc(C(=O)NCc2ccc(F)cc2)ccc1S(=O)(=O)c1ccc(C)cc1	-11.2%
O=C1C(=O)N(C2CCN(S(=O)(=O)c3ccccc3)CC2)CCN1Cc1ccccc1	-1.3%
COC(=O)c1ccccc1NC(=O)Cn1cnc2sc(C)c(S(=O)(=O)N3CCC(C)CC3)c2c1=O	9.8%
Cc1ccc2c(=O)cc(C(=O)Nc3sc4c(c3C(=O)NCc3ccco3)CCC4)oc2c1	0.6%
O=C(Cn1c(=O)c2cccn2c2ccc(F)cc21)NCc1cccc(Cl)c1	?
O=C(Nc1nnc(S(=O)(=O)N2CCCc3ccccc32)s1)c1ccccc1Br	0.4%
Cc1cccc(C)c1-n1nnnc1C1(C)CCC(=O)N1c1ccc(N2CCOCC2)cc1 (centres undefined)	-7.1%
Cc1cc(C)cc(-n2ccn(Cc3ccc(F)cc3)c(=O)c2=O)c1	-0.1%
COC(=O)c1ccc(NC(=O)CN2C(=O)CCc3cc(S(=O)(=O)N4CCCCC4)ccc32)cc1	-2.4%
CCOC(=O)Nc1ccc(/C=C/c2ccnc3ccccc23)cc1	-1.5%
CC(=O)N(c1ccc(Cl)cc1)C1SC(=O)N(c2ccccc2)C1=O (centres undefined)	-2.1%
O=C(Nc1ccc(Br)cc1)c1cc(S(=O)(=O)N2CCc3ccccc32)ccc1F	-4.4%
CC1=C(C(N)=O)C(c2ccc(F)cc2)n2nc(-c3ccc(N(C)C)cc3)nc2N1 (centres undefined)	4.8%
C[C@@H]1O[C@H](C2CC2)Cc2[nH]c(=S)[nH]c(=O)c21	-1.0%
Cc1cc(C)cc(OCc2cc(=O)n3c(-c4ccccc4)csc3n2)c1	-2.2%
CCOC(=O)c1ccc(NC(=O)CSc2ccc3ccccc3n2)cc1	?
CC(C)CCNC(=O)c1ccc2nc(CCc3ccccc3)oc2c1	-6.5%
CSc1ccc(-c2nc3c(C)cccn3c2Nc2ccc3c(c2)OCCO3)cc1	4.3%
COc1ccc(Br)cc1CNC(=O)c1cc(=O)[nH]c2ccc(S(=O)(=O)N3CCCCC3)cc12	-2.6%
COc1ccc(NC(=O)Cc2c(C(=O)O)[nH]c3ccccc23)cc1OC	1.2%
COc1ccc(NC(=O)CSc2ccc(-c3cccs3)nn2)cc1	-0.4%
COc1cccc(CNC(=O)c2c(C)oc3ncnc(N4CCOCC4)c23)c1	1.3%
CN(C)c1ccc(C(CNS(=O)(=O)c2ccc(Br)cc2)N2CCOCC2)cc1 (centres undefined)	-1.0%
C[C@H](c1ccccc1)N1C[C@@H](COCc2ccccc2)Oc2cc(N3CCC[C@@H]3CO)ccc2S1(=O)=O	-24.2%
CCn1cc(/C=C(\NC(=O)c2ccc(C)cc2)C(=O)NCCCn2ccnc2)c2ccccc21	-3.5%
Remaining list, next part
SMILES	ClpP mod
COc1cc(NC(=O)CN2CCN(c3ccc(F)cc3)CC2)cc(OC)c1	-3.0%
COc1ccc(S(=O)(=O)N2Cc3ccccc3CC2C(=O)Nc2cccc(C)c2)cc1OC (centres undefined)	-0.2%
CCOC(=O)c1sc2ccccc2c1S(=O)(=O)N1CCN(c2ccccc2)CC1	-1.6%
COc1ccc(CCNS(=O)(=O)c2ccc(F)c(C(=O)Nc3ccc(Cl)cc3)c2)cc1OC	-3.8%
CC(=O)Nc1nc(-c2ccccc2)c(-c2ccccc2)s1	-5.2%
CCc1nc2sc3c(N4CCC(C)CC4)ncnc3c2c2c1CCCC2	-1.9%
COc1ccc(C)cc1Nc1ncnc2c1c(-c1ccccc1)cn2-c1ccc(C)cc1	4.8%
CSCCC(C(=O)NCc1ccccc1)n1c(Cc2cc(F)cc(F)c2)nc2ccccc21 (centres undefined)	1.6%
Cn1c(=O)c(=O)n(C)c2cc(S(=O)(=O)N3CCCC3C(=O)Nc3cccc(F)c3)ccc21 (centres undefined)	?
Cc1ccc2c(=O)c(C(=O)c3cccc(Cl)c3)cn(CC(=O)NCc3ccc(F)cc3)c2n1	0.2%
O=C(Cn1nc(-c2ccc(Cl)cc2)c2ccccc2c1=O)Nc1cccc(C(F)(F)F)c1	-25.1%
Cc1ccc(CNC(=O)CSc2nc(=O)[nH]c3c2CCCC3)cc1	-2.0%
COc1cc(CN(C(=O)c2cccc(C)c2)c2ccccn2)cc(OC)c1OC	-1.2%
Cc1cc(C)cc(NC(=O)N2CCN(c3cc(-c4noc(C)n4)ccc3C)CC2)c1	-2.4%
Cc1nn2c3c(cnc2c1-c1ccc(F)cc1)C(=O)CC(c1ccccc1)C3 (centres undefined)	0.5%
COC(=O)c1ccc(Cn2c(SCC(=O)Nc3ccc(F)cc3)nc3ccccc32)cc1	-3.1%
Cc1cccc(-n2c(SCC(=O)Nc3ccc(C)c(C)c3)nc3n[nH]c(C)c3c2=N)c1	35.3%
Cc1cccc(N2CCN(c3ccc(C(=O)O)cc3NC(=O)c3ccccc3F)CC2C)c1 (centres undefined)	-0.7%
COc1cccc(C(=O)Nc2c3c(nn2-c2ccc(Cl)cc2)CS(=O)(=O)C3)c1	-0.7%
CCOc1cc2[nH]c(=O)n(Cc3ccc(C(=O)N4CCN(c5ccccc5)CC4)cc3)c(=O)c2cc1OCC	-17.7%
CCCN(C(=O)c1cc2c(s1)-c1ccccc1OC2)c1ccc(C(C)C)cc1	-15.2%
CNC(=O)c1c(NC(=O)c2ccc(S(=O)(=O)N3CCCC(C)C3)cc2)sc2c1CCC2 (centres undefined)	-1.8%
CCC(=O)N1CCc2cc(Br)cc(S(=O)(=O)N3CCCC(C(=O)Nc4cccc(F)c4)C3)c21 (centres undefined)	1.1%
Cc1c(Cl)cccc1-n1ncc(C(=O)Nc2ccc(F)cc2F)c1C1CCN(C(=O)OC(C)(C)C)CC1	-1.2%
O=C(CCC1N=C2c3ccccc3N=C(SCc3ccccc3Cl)N2C1=O)NCCc1ccccc1 (centres undefined)	-7.5%
COC(=O)[C@@]12C[C@@H](CC(=O)NCCc3ccccc3OC)C(=O)N(CCc3ccc(OC)c(OC)c3)C1=CCC(C)(C)C2	-4.4%
CCN(C(=O)Cn1nc2c3cc(F)ccc3n(Cc3cccc(C)c3)cc-2c1=O)c1cccc(C)c1	-5.0%
CCCCN(CC)CCCNC(=O)C1CCN(c2nc3ccc(CC)cc3s2)CC1	-4.7%

Among those listed so far, these contain a thiophene ring, fused or not.
SMILES	ClpP mod
N#Cc1c(C(F)(F)F)cc(-c2cccs2)nc1SCc1ccc(F)cc1	-29.5%
CCn1c(C(=O)N2CCCC(C(=O)N3CCN(c4cc(C)ccc4C)CC3)C2)cc2sccc21 (centres undefined)	-3.3%
FC(F)(F)c1cc(Cl)c2nc(-c3ccc(Cl)cc3)c(Cc3ccsc3)n2c1	-15.7%
CCC(C)NC(=O)c1sc2nc(C)c(C(=O)Nc3ccc(C)cc3C)c(-c3ccc(NC(C)=O)cc3)c2c1N (centres undefined)	-10.5%
CCOc1ccc(NC(=O)CNS(=O)(=O)c2ccc(Br)s2)cc1	0.6%
COc1ccc(CCNC(=O)CCCn2nc(C)c3sc4ccccc4c3c2=O)cc1OC	-6.5%
CCC1CCCCN1S(=O)(=O)c1ccc(C(=O)Nc2sc3c(c2C(N)=O)CCC3)cc1 (centres undefined)	-1.5%
COC(=O)c1ccccc1NC(=O)Cn1cnc2sc(C)c(S(=O)(=O)N3CCC(C)CC3)c2c1=O	9.8%
Cc1ccc2c(=O)cc(C(=O)Nc3sc4c(c3C(=O)NCc3ccco3)CCC4)oc2c1	0.6%
COc1ccc(NC(=O)CSc2ccc(-c3cccs3)nn2)cc1	-0.4%
CCOC(=O)c1sc2ccccc2c1S(=O)(=O)N1CCN(c2ccccc2)CC1	-1.6%
CCc1nc2sc3c(N4CCC(C)CC4)ncnc3c2c2c1CCCC2	-1.9%
CCCN(C(=O)c1cc2c(s1)-c1ccccc1OC2)c1ccc(C(C)C)cc1	-15.2%
CNC(=O)c1c(NC(=O)c2ccc(S(=O)(=O)N3CCCC(C)C3)cc2)sc2c1CCC2 (centres undefined)	-1.8%
